RE007 growth inh: qHTS Assay for Inhibitors of the HIV-1 protein Vpr. 360,000 tested, 0.21% active. Potency, µM (titrated, usually from 92.2 µM), for the others: at the top dose activity change, negative = less growth. S. pombe RE007 Vpr strain, BacTiter-Glo ATP luminescence, 24 h; control for the full effect not named in the record; active = well fitted falling curve with a large enough effect; inconclusive = small, poorly fitted or top-dose-only effect; inactive = no such curve, though single readings can be large or run the other way;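 note: % is set by controls: 0 for no effect and ±100 for the full control effect; nearly all actives have a fitted effect of over 50% in size; the assay follows cell death caused by Vpr and the record does not say whether a fall means rescue or toxicity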
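Fission yeast RE007 carrying one integrated HIV-1 vpr copy, seeded at OD 0.01 in PMG+AL medium with 23 nL pinned compound. Grown 24 h at 30 degrees; viability read by BacTiter-Glo luminescence after 5 min.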
Cruzain noTriton: qHTS Assay for Promiscuous and Specific Inhibitors of Cruzain (without detergent). Potency, µM, for inactives: max response, negative = inhibition, actives largely listed as inhibitors. 200,000 tested, 2.3% active. Cruzipain (Trypanosoma cruzi), P25779. purified cruzain, Z-FR-AMC fluorescence, no detergent; active = well fitted curve in the direction sought with a large enough effect; inconclusive = small, poorly fitted or top-dose-only effect, or another doubt; inactive = no such curve, though single readings can be large; an effect the other way counts as inactive or inconclusive;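 note: plate controls were enzyme without inhibitor for no effect and buffer without enzyme for full effect; nearly all actives have a fitted effect of over 40% in size; top concentration of the series not given in the record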
Target sequence (P25779 123-467 limits assumed): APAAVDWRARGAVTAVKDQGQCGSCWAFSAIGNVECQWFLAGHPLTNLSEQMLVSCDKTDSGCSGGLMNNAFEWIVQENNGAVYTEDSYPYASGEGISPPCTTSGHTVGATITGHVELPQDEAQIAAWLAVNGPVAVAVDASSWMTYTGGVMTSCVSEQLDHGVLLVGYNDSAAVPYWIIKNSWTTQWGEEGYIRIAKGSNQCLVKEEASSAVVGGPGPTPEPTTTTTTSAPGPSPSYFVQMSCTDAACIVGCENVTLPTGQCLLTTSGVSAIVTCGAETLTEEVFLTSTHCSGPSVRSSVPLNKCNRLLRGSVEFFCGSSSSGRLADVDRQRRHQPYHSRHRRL
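Detergent-free condition (0.00005% Triton X-100) in acetate buffer pH 5.5 with DTT. 1.5 nM enzyme and compound were pre-mixed 15 min, then 2 uM Z-FR-AMC substrate added; reaction progress from fluorescence change between first and third reads (60 s).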
StopGo reporter: High Throughput Screening for Foot and Mouth Disease Virus Antivirals; human cells with a luciferase reporter of 2A StopGo recoding; control for the full effect not named in the record; Potency, µM (titrated, usually from 57.9 µM), inactives show at the highest dose signal change, negative = less light; 410,000 tested, 1.2% active; active = well fitted falling curve with a large enough effect; inconclusive = small, poorly fitted or top-dose-only effect; inactive = no such curve, though single readings can be large or run the other way; tested in HEK293T cells; note: % is set by controls: 0 for no effect and ±100 for the full control effect; nearly all actives have a fitted effect of over 45% in size; luciferase light after 4 h
NS1 inh: qHTS Assay for Inhibitors of Influenza NS1 Protein Function. S. cerevisiae slowed by influenza A NS1, growth recovery by OD600. Potency, µM (doses to about 46.1 µM), for the others: at the top dose activity, positive = more growth. 270,000 tested, 0.4% active. AID 2326, 2010; note: actives are rising curves; nearly all actives have a fitted effect of over 50% in size
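Recovery from NS1-induced slow growth read by OD600 in budding yeast switched to galactose assay medium (pH 6.0, -URA) at 1:100 dilution. Compound 23 nl per well; the matching strain lacking NS1 serves as control.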
SARS PLP yeast: qHTS of Yeast-based Assay for SARS-CoV PLP; S. cerevisiae expressing SARS-CoV PLpro, growth rescue; control for the full effect not named in the record; Potency, µM (titrated, usually from 32.9 µM), without a hit: at the top dose activity, positive = growth rescue; 330,000 tested, 0.19% active; AID 485353, 2010; note: 0% is about no effect; nearly all actives have a fitted effect of over 55% in size; growth read by luminescence after 48 h
Marburg entry inh: qHTS for inhibitors of binding or entry into cells for Marburg Virus; AID 540276, 2011; Potency, µM (series often up to 37.8 µM), for inactives: top-dose activity change, negative = inhibition, actives largely listed as inhibitors; 300,000 tested, 1.8% active; Marburg virus pseudotyped entry inhibition, cell reporter; control for the full effect not named in the record; about a third of the inactives were read at about 46 µM; active = well fitted inhibition curve with a large enough effect; inconclusive = small, poorly fitted or top-dose-only effect, or effect the other way; inactive = flat fitted curve, though single readings scatter; tested in HEK293 cells; about a fifth of its hits are not listed in these tables; note: % is set by controls: 0 for no effect and ±100 for the full control effect; luciferase read-out
LASV entry inh: qHTS for Inhibitors of binding or entry into cells for Lassa Virus. Lassa virus pseudotype entry inhibition, cell reporter; control for the full effect not named in the record. 300,000 tested, 1.2% active. Potency, µM (titrated, usually from 37.9 µM), without a hit: at the top dose activity change, negative = inhibition, hits mostly inhibitors; active means well fitted inhibition curve with a large enough effect; inconclusive means small, poorly fitted or top-dose-only effect, or effect the other way; inactive means flat fitted curve, though single readings scatter; tested in HEK293 cells; note: % is set by controls: 0 for no effect and ±100 for the full control effect; nearly all actives have a fitted effect of over 50% in size; luciferase read-out
Cruzain inh Det: qHTS Assay for Promiscuous and Specific Inhibitors of Cruzain (with detergent) | Cruzipain (Trypanosoma cruzi), P25779 | purified cruzain, Z-FR-AMC fluorescence, 0.01% Triton | Potency, µM, for inactives: max response, negative = inhibition, actives largely listed as inhibitors | 200,000 tested, 0.43% active | AID 1478, 2009; active = well fitted curve in the direction sought with a large enough effect; inconclusive = small, poorly fitted or top-dose-only effect, or another doubt; inactive = no such curve, though single readings can be large; an effect the other way counts as inactive or inconclusive;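 note: plate controls were neutral wells for no effect and buffer without enzyme for full effect; nearly all actives have a fitted effect of over 40% in size; top concentration of the series not given in the record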
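Cysteine protease activity tested under reducing, mildly acidic conditions (100 mM sodium acetate pH 5.5, 5 mM DTT) plus 0.01% Triton X-100. Cruzain 1.5 nM; substrate Z-FR-AMC 2 uM; 15 min compound preincubation at room temperature.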
* marks the source's active call; other numbers are inactive results; ? = inconclusive; nt = no result given; & = joins results of further samples; [ ] = another dose, or the depositor's remark. Unless noted, calls come from the whole dose curve; as a rule, active means well fitted rising curve with a large enough effect; inconclusive means small, poorly fitted or top-dose-only effect; inactive means no such curve, though single readings can be large or run the other way. Potency is the fitted concentration of half-maximal effect.

Value order – RE007 growth inh, Cruzain noTriton, StopGo reporter, NS1 inh, SARS PLP yeast, Marburg entry inh, LASV entry inh, Cruzain inh Det
Cc1ncc(C(=O)Nc2ccccc2)[nH]1
    -14.8%, nt, 44.3%[activator], nt, nt, ?, ?, nt
O=C(NC(=O)c1ccccc1F)OCc1ccc(Cl)cc1Cl
    -5.3%, nt, 17.1%, -9.2%, -1.9%, 13.9%[46.1 µM], ?, nt
O=C(C=Cc1ccccn1)c1ccccc1O
    ?, nt, ?, nt, nt, -23.4%[46.1 µM], -13.3%[46.1 µM], nt
CC1CCCC(C)N1C(=O)c1ccc(S(=O)(=O)NCc2ccco2)cc1 (stereo unspecified)
    10.4%, nt, -12.1%, 1.4%, 0.1%, 7.5%[46.1 µM], 19.7%, nt
CC(=O)N1CCc2c(sc3c2c(=O)n(Cc2ccccc2)c(=O)n3CC(=O)Nc2ccc(C)c(F)c2)C1
    nt, -19.0%, -5.3%, nt, nt, ?, nt, -7.2%
CCOC(=O)c1csc(NC(=O)COc2ccc(Cl)cc2Cl)n1
    nt, 2.9%, -24.9%, -6.2%, -43.4%, 4.7%, ?, -6.4%
O=C(c1ccc(Cl)cc1)c1cnc(Nc2ccccc2Cl)s1
    -18.8%, -6.6%, -8.6%, -9.0%, -2.9%, ?, -1.8%, -1.6%
COc1ccc(NC(=O)c2sc3ncn(CC(=O)N4CCCCC4)c(=O)c3c2C)cc1OC
    -12.6%, nt, -12.2%, -3.9%, -3.8%, nt, nt, nt
Cc1ccc(NC(=O)c2cnccn2)nc1
    1.4%, nt, ?, 28.1%, -1.0%, 21.0%[46.1 µM], ?, nt
COC(=O)c1sc(S(=O)(=O)N2CCN(c3ccccc3F)CC2)c(C(=O)OC)c1C
    -9.3%, nt, -8.0%, nt, -1.9%, ?, -12.5%[46.1 µM], nt
CN(C)c1ccc(CN(Cc2ccco2)C(=O)c2ccco2)cc1
    3.9%, nt, -19.3%, -19.9%, -5.3%, nt, nt, nt
O=C(Nc1nc2c(s1)CCCC2)c1cccnc1
    8.0%, -11.7%, 0.0%, 0.4%, -1.3%, 2.7%, -21.2%, -5.4%
O=C(NCc1ccccc1)c1ccc(S(=O)(=O)N2CCCc3ccccc32)cc1
    -2.6%, -6.5%, -4.9%, 13.1%, 2.7%, ?, ?, 2.0%
COCCn1c(C)cc(C(=O)COC(=O)C2CC(=O)N(CCc3ccc(OC)c(OC)c3)C2)c1C (stereo unspecified)
    -17.4%, nt, 43.3%[activator], nt, -5.4%, -25.9%, 6.2%, nt
O=C(Cc1ccc(Br)cc1)NCCc1ccc(F)cc1
    -1.2%, nt, 1.8%, -62.5%, -18.7%, 1.1%, ?, nt
Cc1c(N2C(=O)/C(=C\c3ccccc3O)SC2=S)c(=O)n(-c2ccccc2)n1C
    -2.2%, nt, ?, ?, -4.1%, nt, nt, nt
COc1cc(/C(C)=N/NC(=S)NC(C)C)cc(OC)c1OC
    -8.4%, -0.1%, -26.7%, -10.1%, -6.4%, ?, -17.8%, -7.3%
CC1CN(Cc2cc(=O)n3ccsc3n2)CC(C)O1 (stereo unspecified)
    -5.4%, -4.4%, 5.0%, -0.9%, -2.0%, 0.7%[46.1 µM], 9.0%, -2.5%
CCN(Cc1ccccc1)C(=O)c1cccc(S(=O)(=O)N2CCN(c3ccc(F)cc3)CC2)c1
    -6.8%, nt, ?, nt, -0.2%, -26.3%, ?, nt
CCn1c(SCC(=O)Nc2ccc(N3CCOCC3)cc2)nnc1-c1ccc(OC)cc1
    7.7%, -1.5%, -7.4%, -2.6%, 2.3%, ?, -8.5%, 0.7%
COc1cc(C(=O)N2CCN(Cc3ccccn3)CC2)cc(OC)c1OC
    -2.5%, nt, -15.6%, 1.1%, 0.2%, nt, nt, nt
O=S(=O)(c1ccccc1)N1CCN(S(=O)(=O)c2ccccc2)C1
    -10.1%, 10.9%, 9.6%, -1.7%, -0.8%, 10.5%, 1.7%, 0.6%
COc1cccc(N2CCN(C(=O)/C=C/c3ccco3)CC2)c1
    10.3%, nt, -16.3%, nt, 0.6%, -11.5%[46.1 µM], 8.4%, nt
CCn1c(=O)c2cc(C(=O)N(C)c3cc(Cl)c(OC)cc3OC)sc2c2ccccc21
    nt, 5.1%, -20.6%, nt, nt, 11.0%[46.1 µM], 15.9%[46.1 µM], -2.7%
O=C(Nc1ccccc1)N(CCN1CCOCC1)Cc1ccccc1F
    -0.4%, 2.0%, 11.5%, 1.3%, 2.1%, 8.2%, ?, 2.9%
Cc1ccc(CNc2ccc3c(c2)OCO3)c(C)c1
    nt, ?, nt, -0.6%, nt, 3.7%, nt, -0.1%
COC(=O)c1ccc(COc2cc([N+](=O)[O-])cc3cccnc23)cc1
    0.2%, nt, 7.8%, 0.3%, -1.7%, nt, nt, nt
COc1ccccc1C1=NOC(COC(=O)c2ccc(Br)cc2)C1 (stereo unspecified)
    -5.4%, 4.0%, -22.5%, -5.6%, -37.7%, 9.6%, ?, -3.7%
O=C(O)CCCCOn1ccnc1
    4.7%, nt, -0.5%, nt, 1.7%, ?, 1.7%, nt
CCOc1ccc(N2CC(c3nc4ccccc4n3CCCOc3ccc(OC)cc3)CC2=O)cc1 (stereo unspecified)
    nt, 6.6%, -9.7%, nt, nt, -19.9%[46.1 µM], ?, -4.6%
O=[N+]([O-])c1ccc(N2CCSCC2)cc1
    3.1%, nt, -0.2%, -2.8%, 0.3%, -3.1%[46.1 µM], 26.1%[46.1 µM], nt
CCCOP(=O)(c1ccc(N(C)C)cc1)C(O)c1cc(OC)ccc1OC (stereo unspecified)
    -12.8%, nt, 12.4%, -2.4%, 0.7%, nt, nt, nt
COc1cccc(/C=N/NC(=O)c2nnn(-c3nonc3N)c2C(C)C)c1OCc1ccc(F)cc1
    2.2%, nt, 0.0%, -15.9%, 0.4%, ?, ?, nt
COc1cccc(NC(=O)CN(C)CC(=O)Nc2ccc(Br)cc2)c1
    1.2%, nt, 1.6%, nt, -0.2%, 12.0%, -13.1%, nt
CCS(=O)(=O)N1CCCC(C(=O)NCC2CCCO2)C1 (stereo unspecified)
    1.8%, 2.7%, -9.3%, -3.7%, -4.9%, 6.4%, 10.7%, -5.9%
CCCn1nnnc1NCc1ccc(OC)cc1OC
    -18.3%, nt, -11.1%, -1.7%, 2.5%, 5.5%[46.1 µM], -4.8%[46.1 µM], nt
CC(C)CC(=O)NCCCCc1ccccc1
    45.3%, -4.4%, 2.7%, -12.3%, -9.6%, ?, -1.9%, 1.5%
O=C(c1ccccc1S(=O)(=O)NCC(O)COc1ccc([N+](=O)[O-])cc1)N1CCCCC1 (stereo unspecified)
    8.6%, 0.4%, -22.4%, -13.1%, 2.8%, -16.1%, 2.0%, -1.0%
Cc1ccc(N(CC(=O)NCc2ccc(F)cc2)C(=O)c2ccco2)cc1C
    3.0%, nt, -6.7%, -0.1%, -0.7%, -26.4%[46.1 µM], -13.1%, nt
O=S(=O)(c1ccc(Cl)nc1)N1CCc2ccccc21
    -0.6%, nt, -16.6%, -3.9%, -3.0%, nt, nt, nt
O=C(Nc1ccccc1N1CCCC1)C1CCN(S(=O)(=O)c2ccc(F)cc2)CC1
    5.1%, nt, -14.5%, nt, -0.3%, ?, 0.3%, nt
O=C(CCNc1n[nH]c(=O)[nH]c1=O)N/N=C/c1ccc(C(F)(F)F)cc1
    28.8%, nt, 1.4%, nt, 1.7%, 11.4%[46.1 µM], -19.5%[46.1 µM], nt
COC(=O)Cn1c(=O)c(=O)n(CC(=O)OC)c2ccccc21
    0.0%, nt, -8.1%, nt, 0.8%, 2.0%[46.1 µM], 0.7%, nt
Cc1cccc(-c2nc3cc(NC(=O)C4CCCO4)ccc3o2)c1 (stereo unspecified)
    ?, 26.2%, -44.1%, -12.9%, -21.6%, 7.08µM*, 7.94µM*, -5.9%
COc1ccccc1-c1cc(C(F)(F)F)nc(S(=O)(=O)CCCC(=O)Nc2ccc(F)c(Cl)c2)n1
    nt, 0.1%, 0.0%, nt, nt, 24.5%[46.1 µM], 3.7%[46.1 µM], -1.0%
COc1cc(NC(=O)CCc2c(C)nn(-c3ccc(N4CCOCC4)nn3)c2C)cc(OC)c1OC
    11.8%, -6.2%, -3.9%&-21.5%, -5.9%, -1.4%, 0.7%&0.7%[46.1 µM], ?, -0.3%
Cc1nnc(NC(=O)CSCc2cc(=O)c3ccccc3[nH]2)s1
    nt, 13.3%, -13.1%, nt, -2.7%, nt, 1.3%[46.1 µM], -1.8%
Cn1nc(C(=O)Nc2ccc(S(=O)(=O)N3CCCC3)cc2)ccc1=O
    12.5%, -8.6%, -13.0%, -3.2%, 1.6%, 24.8%[46.1 µM], ?, -0.5%

Results in Cruzain noTriton and Cruzain inh Det, for some of the entries so far:
Compound,Cruzain noTriton,Cruzain inh Det
COc1ccccc1-c1cc(C(F)(F)F)nc(S(=O)(=O)CCCC(=O)Nc2ccc(F)c(Cl)c2)n1,0.1%,-1.0%
COc1cc(NC(=O)CCc2c(C)nn(-c3ccc(N4CCOCC4)nn3)c2C)cc(OC)c1OC,-6.2%,-0.3%
Cc1nnc(NC(=O)CSCc2cc(=O)c3ccccc3[nH]2)s1,13.3%,-1.8%
Cn1nc(C(=O)Nc2ccc(S(=O)(=O)N3CCCC3)cc2)ccc1=O,-8.6%,-0.5%

Source: PubChem (National Center for Advancing Translational Sciences (NCATS))
